# hNpr1 antagonist: Natriuretic polypeptide receptor (hNpr1) antagonism - Primary qHTS; AID 1347048, 2019; HEK293 hNpr1 GloSensor cGMP, ANP-stimulated luminescence; hit rate 1.6% among 76,000; Potency, µM (titrated, usually from 46.3 µM), without a hit: at the highest dose activity change, negative = inhibition, hits mostly inhibitors; active = well fitted inhibition curve with a large enough effect; inconclusive = small, poorly fitted or top-dose-only effect; inactive = no such curve, though single readings can be large or run the other way;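 note: nearly all actives have a fitted effect of over 60% in size; nearly all hits also lower the signal before the agonist is added; a reference antagonist and vehicle were the controls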
# Target sequence (P16066 whole entry, looked up): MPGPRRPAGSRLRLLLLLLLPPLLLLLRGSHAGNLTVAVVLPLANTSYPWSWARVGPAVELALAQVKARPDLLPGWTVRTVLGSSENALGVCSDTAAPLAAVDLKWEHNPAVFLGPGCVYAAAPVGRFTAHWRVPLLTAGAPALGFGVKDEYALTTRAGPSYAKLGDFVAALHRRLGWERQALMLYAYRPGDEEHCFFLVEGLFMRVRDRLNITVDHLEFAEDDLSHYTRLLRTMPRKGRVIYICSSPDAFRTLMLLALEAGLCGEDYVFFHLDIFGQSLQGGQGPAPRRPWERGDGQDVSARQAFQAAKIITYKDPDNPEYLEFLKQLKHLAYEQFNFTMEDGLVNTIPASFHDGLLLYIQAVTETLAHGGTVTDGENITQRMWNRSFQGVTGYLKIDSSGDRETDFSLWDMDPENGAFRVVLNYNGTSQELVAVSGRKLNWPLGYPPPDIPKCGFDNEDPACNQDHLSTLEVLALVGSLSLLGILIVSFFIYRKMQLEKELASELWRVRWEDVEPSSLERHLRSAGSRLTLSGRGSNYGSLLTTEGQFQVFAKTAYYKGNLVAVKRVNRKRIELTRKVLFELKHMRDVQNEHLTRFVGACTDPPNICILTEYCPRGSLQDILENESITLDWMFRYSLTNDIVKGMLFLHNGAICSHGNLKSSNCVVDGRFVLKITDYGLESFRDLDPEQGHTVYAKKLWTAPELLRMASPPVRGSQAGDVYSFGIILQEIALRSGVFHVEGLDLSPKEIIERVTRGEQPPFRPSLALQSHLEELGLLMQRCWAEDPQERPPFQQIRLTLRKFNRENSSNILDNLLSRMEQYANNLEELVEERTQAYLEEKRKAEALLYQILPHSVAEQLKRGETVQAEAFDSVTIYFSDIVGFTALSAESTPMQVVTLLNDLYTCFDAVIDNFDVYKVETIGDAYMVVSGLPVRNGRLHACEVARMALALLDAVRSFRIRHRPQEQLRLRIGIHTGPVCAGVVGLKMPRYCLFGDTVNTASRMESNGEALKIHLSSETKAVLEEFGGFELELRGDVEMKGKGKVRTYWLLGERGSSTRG
#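 HEK293 cells stably expressing human Npr1 and cGMP GloSensor pGS-40F, loaded 2 h with 2% GloSensor reagent, given compound 30 min at room temperature. Luminescence read before and 20 min after 0.1 nM hNppA.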
# * hit, by the source's call; ? = inconclusive; [ ] = dose if it differs, or a comment. % is set by controls: 0 for no effect and ±100 for the full control effect; potency is the fitted concentration of half-maximal effect.
Compound	hNpr1 antagonist
CCc1cccc2c(C(CC(=O)NCCOC)c3ccc(OC)cc3OC)c[nH]c12 (configuration not stated)	3.2%
COC(=O)[C@H]1CN(C(=O)c2cccnc2)CCN1C(=O)N1CCOCC1	-5.7%[70.6 µM]
Cc1ccc(-c2cc3c(ccn3C)c(C(=O)NCc3cccnc3)n2)cn1	7.8%[70.6 µM]
CCOCCn1c(=O)[nH]c2cc(C(=O)NCc3sc(C)nc3C)ccc21	?
O=C1CC2CCCC(C1)N2C(=O)c1ccc(F)cc1	-11.0%[70.6 µM]
CC(C)NC(=O)N1CCC[C@@H](O)[C@H](NC(=O)c2ccc(OCc3ccccc3)cc2)C1	-0.2%[70.6 µM]
CS(=O)(=O)N1CCC2(CC1)CC(CC(=O)O)CCO2 (configuration not stated)	-8.5%
CN(C)c1ccc(C(=O)N[C@H]2C[C@H]3C(=O)NC[C@@H](CCC(=O)NCc4ccc(F)cc4)N3C2)cc1	-1.0%
CCNC(=O)N(C1CC1)C1CCOC2(CCN(C(=O)Nc3ccccc3)CC2)C1 (configuration not stated)	2.9%
Cc1cc(Nc2ncncc2-c2nc(-c3ccccc3)no2)ccc1F	-0.4%
CCN(CC)c1cc(CCC(=O)N2CCC(COC)CC2)ccn1	-14.0%
COC[C@@H]1CN(C(=O)c2cc(C)oc2C)C[C@H]1c1ccccn1	-13.6%
Cn1nc(C(=O)N2CCCN(Cc3ccncc3)C(c3ccccc3)CC(=O)NCC2)c2ccccc21 (configuration not stated)	0.5%
Cn1ccc(C(=O)N2CCC3(CC2)OC(=O)N(Cc2ccccc2C#N)C3(C)c2ccccc2)n1 (configuration not stated)	-2.1%
CCC(=O)N1CCC(n2nccc2NC(=O)Nc2ccccc2Cl)CC1	4.1%
COCCn1c(CN2C(=O)N(C)C(=O)C2(C)C)nnc1C1CC(N)C1 (configuration not stated)	9.6%
O=C(c1ccccn1)N1CCC(CCOc2ccccc2F)C1 (configuration not stated)	-3.2%
CCCc1nnc(N2C[C@@H](CCC)[C@H](C(=O)O)C2)s1	7.5%
Cn1nnc(-c2ccc(C(=O)N3CCC4(CCCO4)CC3)cc2)n1	3.3%
CCCNC(=O)N1CCC(c2noc(COc3ccc(C)cc3)n2)CC1	-26.5%
c1ccc(CNC[C@H]2Cn3c(-c4ccccc4)cnc3CO2)cc1	-13.3%[70.6 µM]
O=C([C@@H]1C[C@H](Oc2cccnc2)CN1C(=O)Cc1cccc(F)c1)N1CCOCC1	0.2%
CC(=O)NC[C@H]1COCc2nc3cc(NC(C)=O)ccc3n21	-0.7%[70.6 µM]
Cc1nc2cc(C(=O)N3CCN(c4ccccc4C#N)C(=O)C3)ccc2s1	4.5%
Cc1ccc(-n2ncc3c2CCCC3NS(=O)(=O)N2CCCC2)cc1C (configuration not stated)	-26.5%
COc1cccc(CN2CCC3(COc4ccccc4C(=O)N3)C2)c1 (configuration not stated)	-20.5%[70.6 µM]
COc1ccc(-n2nc(C)c([C@H]3C=C[C@@H](OC(=O)N[C@H](C)c4ccccc4)C3)c2C)cc1	11.2µM*
O=S(=O)(c1cccs1)N1CCCCC1c1nc(CCOCC2CC2)no1 (configuration not stated)	-8.2%
Cc1noc(-c2ccn3c(CNC(=O)c4ccc(C)c(F)c4)nnc3c2)n1	6.1%
C[C@H]1[C@@H]2[C@@H](O)C([C@H](C)C(=O)NCc3ccco3)CC[C@@]2(C)CC[C@@H]1NC(=O)c1ccccc1 (some centres not stated)	-2.9%
c1coc(CN[C@H]2CO[C@H]3[C@@H]2OC[C@@H]3n2nnnc2Oc2ccc(-n3cncn3)cc2)c1	-1.7%
COc1ccc(C(=O)NC(C(=O)NC(C)C)C2CCN(C(=O)c3ccccc3)CC2)cc1 (configuration not stated)	-3.8%
CC(=O)NC[C@H]1CCN(S(=O)(=O)c2cc(F)ccc2C)C[C@H]1N(C)C	4.3%
CCS(=O)(=O)Nc1ccc(C2(C(=O)NC(C)c3ccccc3)CCCCC2)cc1 (configuration not stated)	-3.1%
CC(NC(=O)c1ccc2c(c1)CC(=O)N2Cc1ccccc1)c1ccc(F)cc1 (configuration not stated)	-18.8%
COc1ccccc1CC(=O)NC(C)C(=O)N1CCN(c2ccccn2)CC1 (configuration not stated)	2.5%
COc1ccc(F)c(CN2CCCC3(CCN(C(=O)c4cccc(C)n4)C3)C2)c1 (configuration not stated)	1.0%
c1ccc(CCCN2CC[C@H](c3nnc(-c4ccccc4)o3)C2)cc1	-2.9%[70.6 µM]
O=C(NCCc1ccccc1)Nc1cccc(-c2nnc3n2CCCC3)c1	-14.4%
CCn1ccc2sc(C)c(C(=O)N3CCOCC3)c2c1=O	0.3%
CCc1nc2c(c(-c3ccc(Cl)cc3)n1)CN([S+](C)(=O)[O-])CC2	4.1%[70.6 µM]
CCOc1cc(=O)n2c(c1C(=O)NCc1ccccn1)CCCCC2	1.3%
Cc1noc(C)c1COc1ccc(C(=O)N[C@@H]2CN(C(=O)Nc3ccc(F)cc3)CCC[C@H]2O)cc1	-16.4%
CN(C)c1cccc(C(=O)NC2CCN(c3cn[nH]c(=O)c3)CC2)c1	-13.6%
CCN1CCN(c2nc3c(s2)CN(Cc2ccco2)CC3)CC1	4.3%
COc1ccc(N2CCC(NC(=O)c3ccc4[nH]ccc4c3)C2=O)cc1 (configuration not stated)	-0.3%
O=C(CCc1ccccc1)NCc1nnc2ccc(-c3ccccc3)nn12	4.2%
O=C(Cc1ccccc1)N1CCC[C@H]1c1nc(-c2ccccc2Cl)no1	1.4%
CC(C)(C)CC(=O)Nc1ccc([C@@H](O)[C@H]2COCC(=O)N2CCCc2ccccc2)cc1	3.2%
Cc1ccc(-c2ccc(C(=O)NCCCn3ccnc3C(C)C)cn2)cc1C	-4.6%

# Further results follow.
Compound	hNpr1 antagonist
c1ccc(CN2CC[C@H](c3nc4ncccc4[nH]3)C2)cc1	-18.4%[70.6 µM]
CN1c2cc(C(=O)Nc3cc(F)cc(F)c3)ccc2C(=O)N2CCCCC21 (configuration not stated)	-14.6%
Cc1ccc(NC(=O)N2CC(N(C)Cc3cccnc3)C2)cc1C	5.3%
O=C(Nc1ccccc1)c1cnc2n1CCN(Cc1cccc(OC(F)(F)F)c1)CC2	-8.8%[70.6 µM]
Cc1cn(CC(=O)N[C@H]2CN(C(=O)CC(C)C)C[C@@H]2C2CC2)c(=O)[nH]c1=O	2.8%
Cc1ccc(NC(=O)C2CCN(c3cc(C(F)(F)F)ncn3)CC2)cc1	8.91µM*
CCCCc1cc(C[C@@H]2C[C@H](NC(=O)NCC)C2(C)C)no1	-6.2%[70.6 µM]
COCC(=O)N1CCCCCNC(=O)[C@@H]2CCCC[C@@H]21	-12.3%
Cc1cccnc1C(=O)N[C@@H]1CN(Cc2ccccc2)C[C@H]1CN(C)C	1.9%
COCCNC(=O)[C@H]1C[C@H](Oc2ccccc2)CN1C(=O)NCc1ccc(F)cc1	-1.3%
COc1cc(F)ccc1-c1ccc2c(n1)c(=O)ncn2CC1CC1	6.6%[70.6 µM]
CN(C)c1ccc(C(=O)N2CCC[C@H]2c2nc(-c3ccc(F)cc3)no2)cc1	0.6%
CCc1nc(-c2c3n(c(=O)n(CC(=O)NC4CCCCC4)c2=O)CCCC3)no1	0.4%
COc1ccc(CCC(=O)N2CCC3(CC2)NC(=O)N(c2cccc(Cl)c2)N3)cc1	-3.8%
CS(=O)(=O)N1CCCN(C(=O)CCCc2ccccc2)CCNC(=O)CC1c1ccccc1 (configuration not stated)	-8.2%
CC1CCN(CC2CCCCCN2C(=O)c2ccoc2)CC1 (configuration not stated)	0.3%
Cc1cc(F)ccc1OC1CN(Cc2ccc(C(F)(F)F)cc2)C1	-20.6%[70.6 µM]
O=C(NCc1ccccc1)c1cn(C2CN(C(=O)Nc3ccc4c(c3)OCCO4)C2)nn1	-11.6%
CNC(=O)c1ccc(OC)c(-c2cc(N)nc3[nH]ccc23)c1	3.3%
O=C(Nc1cccc(F)c1)C1CCN(C(=O)c2ncn3c2COC(c2ccc(F)cc2)C3)CC1 (configuration not stated)	?
CC(C)N(C)Cc1nnnn1CC(=O)NCc1cn[nH]c1-c1ccc(F)cc1	1.6%
O=[S+]([O-])(Nc1nncs1)c1ccc2c(c1)OCCN(Cc1cncc(F)c1)C2	-3.1%[70.6 µM]
CCCN(CC1CCOC1)S(=O)(=O)c1cccc(Cl)c1 (configuration not stated)	-0.7%
CS(=O)(=O)N1CCC(C2CCN(CC3CC3)C2)CC1 (configuration not stated)	2.2%
CCn1ccc2oc(C)c(C(=O)N3CCN(c4ccc(Cl)cc4)CC3)c2c1=O	5.9%
CC(C)(Oc1ccccc1)C(=O)N1CCCn2nc(C(=O)N3CCOCC3)cc2C1	1.8%
CN1C(=O)CS(=O)C12CCN(C(=O)Nc1ccccc1)CC2 (configuration not stated)	-9.8%
CN1CCCCCCN(C(=O)CC2CCCCC2)[C@H]2CCC[C@H]2C1=O	6.9%
COCCCn1c(C)cnc1CC1CCN(C(=O)c2ccc(OC)cc2OC)CC1	16.5%
O=C(c1n[nH]c2ccccc12)N1CCC(Cc2noc(C3CCOCC3)n2)C1 (configuration not stated)	-22.3%
CC(NC(=O)OCc1ccccc1)c1nc2cccnc2n1Cc1ccccc1 (configuration not stated)	21.2%
O=C(CN1C(=O)NC2(CCCCC2)C1=O)Nc1ccc(Cl)cc1	0.0%
CSc1ccc(-c2ccc3c(c2)C(=O)N2CCN(C(=O)CCC(=O)O)C[C@H]2C(=O)N3)cc1	3.7%
CS(=O)(=O)N(C1CC1)C1CCOC2(CCN(C(=O)COc3ccccc3)CC2)C1 (configuration not stated)	-2.3%
O=c1cc(-c2cccnc2)oc2c(NCC3CCOCC3)nccc12	-0.6%[70.6 µM]
O=C1COCC2(CN1Cc1cccc(OC(F)(F)F)c1)CN(C(=O)C1CCOCC1)C2	-1.7%
CCc1ccc(N2CC(c3noc(-c4ccc(OC)nc4OC)n3)CC2=O)cc1 (configuration not stated)	-19.7%
Cc1cc(C(=O)N[C@H]2[C@H](O)[C@H](O)C[C@@H]2c2cccnc2)no1	-0.2%[70.6 µM]
CNC(=O)N1CCC(C2CCN(C(=O)NCc3cccc(OC)c3)C2)CC1 (configuration not stated)	0.1%
CN(C)C(=O)c1ccc(OC2CCN(C(=O)c3ccccc3F)CC2)nc1	-3.4%
O=C(Cc1cccc(F)c1)N1CCC2(CC1)CC(N(Cc1ccccc1)C1CC1)CCO2 (configuration not stated)	3.5%
Cc1ccn2c(C(=O)NCC3CCN(c4cnn(C)c(=O)c4)C3)nnc2n1 (configuration not stated)	2.5%
Cc1ccc(C(=O)N2CCC3(CCC(=O)N(CC4CC4)CC3)CC2)cc1F	-13.1%
Cn1nc(C2CCN(C(=O)c3ccc(C(F)(F)F)cc3)CC2)[nH]c1=O	0.0%
CCC(NC(=O)c1cc(COc2ccccc2F)[nH]n1)c1ccncc1 (configuration not stated)	-14.0%
COc1cccc(CN2C(=O)OC3(CCN(Cc4ccncc4)CC3)C2(C)c2cccnc2)c1 (configuration not stated)	2.9%
CC1=NS(=O)(=O)N(C)C=C1C(=O)OCc1noc(-c2ccccc2C)n1	10µM*
COc1ccc(C(=O)N2CCC(c3nn(C)c(=O)[nH]3)CC2)cc1	-3.3%[70.6 µM]
CCNC(=O)O[C@@H]1CC[C@]2(C)C(CC[C@@H](O)[C@H]2CC(=O)NCc2ccc(F)cc2)[C@]1(C)CO (some centres not stated)	4.5%
CC(C)(C)c1coc([C@@H]2COCCN2Cc2cccc(C#N)c2)n1	-0.5%[70.6 µM]

# Given with values ahead of the structure: part of the list above.
hNpr1 antagonist | compound
-14.0% | CCC(NC(=O)c1cc(COc2ccccc2F)[nH]n1)c1ccncc1 (configuration not stated)
-3.1%[70.6 µM] | O=[S+]([O-])(Nc1nncs1)c1ccc2c(c1)OCCN(Cc1cncc(F)c1)C2
1.0% | COc1ccc(F)c(CN2CCCC3(CCN(C(=O)c4cccc(C)n4)C3)C2)c1 (configuration not stated)

# Later entries:
Compound	hNpr1 antagonist
CN1C(=O)CC[C@]2(C(=O)NCc3ccccc3F)CCCC[C@@H]12	-3.1%
Cc1cccc(CC(=O)N2CCC3(CC2)CCC(O)(CN(C)C)CC3)c1	1.3%
COc1cc(Cl)ccc1C(=O)N1C[C@@H](F)C[C@H]1C(=O)N1CCCCC1	0.5%
CC(C(=O)NCc1cc(F)ccc1F)C1CCOCC1 (configuration not stated)	-2.6%
CN1c2cccnc2CN(Cc2ccc(C#N)cc2)CC[C@H]1CO	3.3%[70.6 µM]
COC[C@H]1NC(=O)CC[C@H]1C(=O)NCCCN1CCc2ccccc2C1	-10.4%
COC(=O)[C@@H]1Cc2ncn(Cc3ccc(Cl)cc3)c2CN1Cc1ccc(NC(C)=O)cc1	-22.3%
CN1C(=O)c2cccn2CC1C(=O)NCc1ccccc1 (configuration not stated)	-0.2%
COc1ccccc1CN[C@H]1CC(C)(C)[C@@H]2C[C@@](C)(O)CC[C@]12CCC(=O)NCCN1CCOCC1	-1.3%
Cc1ccccc1CC(=O)N1C[C@@H](COc2ccccc2)[C@H](C(N)=O)C1	7.3%
CN1CCC2(CCC1=O)CN(Cc1nc3c(s1)CCCC3)CCN2C (configuration not stated)	-11.1%
O=C(NCc1ccc2c(c1)OCO2)C1CCN(C(=O)c2ncn3c2COC(c2ccccc2)C3)CC1 (configuration not stated)	-24.2%
COc1cccc(CN2CCCC3(CCN(c4cc(C)nc(N)n4)C3)C2)c1OC (configuration not stated)	-8.7%

# Screening results as filed in PubChem.

# This is a subset; the hit share may differ from the screen's.
